Source: PubChem
KCNQ2 enhance = KCNQ2 (rat) channel potentiation | 310,000 tested, 0.54% active | CHO-K1 KCNQ2, FluxOR thallium flux fluorescence; active compounds read high | B-score at 10 µM | AID 2239;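 active means fluorescence ratio B-score at least 3 SD of library B-scores, with initial fluorescence B-score within 3 SD, cut at about 5.3 in these data; same plate scores as AID 2156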;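 further: B-score of peak minus minimum over baseline fluorescence ratio after K+ and Tl+ stimulus; positive B-score means potentiation of KCNQ2 with more thallium influx and brighter signal; only the inactives scoring about 0 or higher are listed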
Target sequence (O88943 whole entry, looked up): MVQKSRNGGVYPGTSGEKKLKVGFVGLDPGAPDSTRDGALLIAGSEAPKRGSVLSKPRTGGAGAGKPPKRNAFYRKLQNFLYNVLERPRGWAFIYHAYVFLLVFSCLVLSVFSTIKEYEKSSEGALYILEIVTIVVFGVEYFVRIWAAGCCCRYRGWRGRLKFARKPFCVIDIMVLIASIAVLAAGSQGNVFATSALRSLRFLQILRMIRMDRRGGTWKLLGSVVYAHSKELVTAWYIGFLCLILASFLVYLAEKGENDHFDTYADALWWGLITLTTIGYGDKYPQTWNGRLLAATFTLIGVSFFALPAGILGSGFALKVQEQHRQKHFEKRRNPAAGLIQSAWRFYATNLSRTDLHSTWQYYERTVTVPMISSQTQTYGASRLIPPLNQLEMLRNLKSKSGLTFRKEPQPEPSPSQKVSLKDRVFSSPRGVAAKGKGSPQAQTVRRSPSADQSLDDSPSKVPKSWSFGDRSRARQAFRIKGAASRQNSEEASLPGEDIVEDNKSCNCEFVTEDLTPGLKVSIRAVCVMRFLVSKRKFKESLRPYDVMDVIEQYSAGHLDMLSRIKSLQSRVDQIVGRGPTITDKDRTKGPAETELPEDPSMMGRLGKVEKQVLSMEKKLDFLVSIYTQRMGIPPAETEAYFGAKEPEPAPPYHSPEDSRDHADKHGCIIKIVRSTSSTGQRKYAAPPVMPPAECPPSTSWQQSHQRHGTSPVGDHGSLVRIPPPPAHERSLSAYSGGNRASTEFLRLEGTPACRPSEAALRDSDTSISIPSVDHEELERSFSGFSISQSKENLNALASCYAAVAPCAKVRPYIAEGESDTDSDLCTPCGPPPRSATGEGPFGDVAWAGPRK
KCNQ2 enhance baseline = also measured in KCNQ2 enhance; calls as there; B-score; compound at 10 µM; measured here: initial fluorescence intensity artifact check;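 brightness before thallium and not channel activity; 0 = typical well and far values either way flag optical interference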
Starred values were filed as active, the others as inactive; / = not tested or not shown. An excerpt; count on the stated rates, not on these rows.

Below each compound – KCNQ2 enhance, KCNQ2 enhance baseline
CN(C)C(=O)N1CCC(C(=O)N2CCCC(C(=O)c3cccc4ccccc34)C2)CC1 (centres undefined)
→ 1.1, -0.08
COc1ccc(CCN2C(=O)CC(NNC(=O)c3cccc(O)c3)C2=O)cc1 (centres undefined)
→ 0.73, -0.02
CCCC1OC23CCCCC2C(C#N)(C(=N)O3)C1(C#N)C#N (centres undefined)
→ 0.4, 0.13
CCC(C)C(NS(=O)(=O)c1ccc(C)cc1)C(=O)O (centres undefined)
→ 0.45, -0.34
CC1Cc2cc(S(=O)(=O)N3CCN(c4cccc(Cl)c4)CC3)ccc2N1C(=O)C1CC1 (centres undefined)
→ 1.9, 2.4
COc1ccc(CCNC(=O)C2CCC(=O)N2S(=O)(=O)c2ccc(C)cc2)cc1 (centres undefined)
→ 1.5, 0.05
CC(C)(C)n1nc2c(c1NC(=O)c1ccc(Br)cc1)CS(=O)C2 (centres undefined)
→ 1, -0.91
O=[N+]([O-])c1cccnc1NCc1cccs1
→ 0.83, 0.4
Cc1cc(C)c2c(-n3cccc3)c(NC(=O)OC(C)C)sc2n1
→ 0.63, -0.14
COc1cc(/C=C2/C(=O)NN(c3ccc(Cl)cc3)C2=O)cc(OC)c1O
→ 1.3, -0.02
CC1CCCC(C)N1C(=S)NCc1ccco1 (centres undefined)
→ 0.09, -0.71
CCOC(=O)c1ccc(N2C(=O)C3CC=CCC3C2=O)cc1 (centres undefined)
→ 1.2, 0.03
O=C(NNS(=O)(=O)c1ccccc1)c1ccc(S(=O)(=O)N2CCCCC2)cc1
→ 2.3, 0.43
Cn1c(CCN2CCCCCC2)nc2cc(NC(=O)Nc3ccccc3)ccc21
→ 0.3, -1.5
Cc1ccc(Cn2ncn(-c3ccccc3)c2=O)cc1
→ 0.03, 0.48

Next part; the last 4 above are carried over.
Below each compound – KCNQ2 enhance, KCNQ2 enhance baseline
CCOC(=O)c1ccc(N2C(=O)C3CC=CCC3C2=O)cc1 (centres undefined)
→ 1.2, 0.03
O=C(NNS(=O)(=O)c1ccccc1)c1ccc(S(=O)(=O)N2CCCCC2)cc1
→ 2.3, 0.43
Cn1c(CCN2CCCCCC2)nc2cc(NC(=O)Nc3ccccc3)ccc21
→ 0.3, -1.5
Cc1ccc(Cn2ncn(-c3ccccc3)c2=O)cc1
→ 0.03, 0.48
Cn1c(-c2sc(=S)n(-c3ccccc3)c2N)nc2ccccc21
→ 0.17, 2.4
COc1ccccc1C/C(N)=N/OC(=O)c1cccs1
→ 0.9, 2.1
COc1cc(OC)c(C(=O)O/N=C(\N)c2cccc(C)c2)cc1OC
→ 0.79, -0.6
COc1ccc(-n2ncc3c(NCCCn4ccnc4)ncnc32)cc1
→ 0.07, 0.08
COc1ccc2[nH]c3c(c2c1)CCC/C3=N\N
→ 0.21, 0.15
COc1ccc(/C=C/C(=O)NNc2cc(=O)n(C)c(=O)n2C)cc1OC
→ 2.1, -0.81
CCN(CC(=O)NC1CCS(=O)(=O)C1)S(=O)(=O)c1ccc(Cl)cc1C(F)(F)F (centres undefined)
→ 1, 0.19
Cc1cc(NC(=O)CCC(=O)N(c2ccccc2)C(C(=O)NC2CCCCC2)c2cccs2)no1 (centres undefined)
→ 0.06, -0.4
COc1ccc(-c2nc(CS(=O)(=O)CC(=O)NCCCN3CCN(C)CC3)c(C)o2)cc1
→ 0.42, 0.57
CC1(C)CC(=O)C2=C(C1)NCN(CCCN1CCOCC1)C2
→ 0.07, 1.8
O=C(O)Cn1nnc(-c2ccc(OCc3ccccc3)cc2)n1
→ 0.11, 1.7
COc1ccc(C)c(NC(=O)C2CC(=O)NC3=C2C(=O)CCC3)c1 (centres undefined)
→ 0.01, -0.37
O=C(COC(=O)c1cnc(Cl)c(Cl)c1)Nc1ccc(S(=O)(=O)N2CCCC2)cc1
→ 1.3, -0.11
O=C(CNc1cccc(S(=O)(=O)N2CCOCC2)c1)Nc1ccccc1F
→ 0.21, 0.09
CN(C)c1ccc(N2C(=NC(=O)COc3ccccc3)SC3CS(=O)(=O)CC32)cc1 (centres undefined)
→ 0.05, 0.2

Entries of single compounds as entered above.
Listed for `COc1ccc(/C=C/C(=O)NNc2cc(=O)n(C)c(=O)n2C)cc1OC` → KCNQ2 enhance: 2.1; KCNQ2 enhance baseline: -0.81
Listed for `COc1ccccc1C/C(N)=N/OC(=O)c1cccs1` → KCNQ2 enhance: 0.9; KCNQ2 enhance baseline: 2.1

Other entries follow.
Below each compound – KCNQ2 enhance, KCNQ2 enhance baseline
Cc1nn(C)cc1/C=N/NC(=O)C(C)(C)Oc1ccc(Cl)cc1
→ 0.57, 0.67
Cc1nc2scc(C)n2c(=O)c1S(=O)(=O)NCc1ccc(F)cc1
→ 0.63, 1.3
O=C(Nc1ccccc1N1CCCC1)c1cccc(F)c1
→ 1.9, 1.8
Nc1ncc([N+](=O)[O-])c(N2CCCCCC2)n1
→ 0.13, 0.66
O=C(Nc1ccc2c(c1)OCCO2)c1ccc(Cl)c([N+](=O)[O-])c1
→ 1.4, 0
COc1ccc2cc3c(N)nn(C(=O)c4ccccc4[N+](=O)[O-])c3nc2c1
→ 0.02, -0.09
Nc1cccc(-c2cnc3ccccc3n2)c1
→ 2, 0
COc1ccc(NC(=O)CSc2nc3c([nH]c4ccccc43)c(=O)n2C)cc1
→ 0.52, -0.77
Nc1nonc1C(=O)NCCNS(=O)(=O)c1ccc(F)cc1
→ 0.08, -1.1
COc1ccc(C(=O)N2c3ccccc3CC2C)cc1OC (centres undefined)
→ 1.3, 1.3
Cc1ccc(NC(=S)Nc2cccc3ccccc23)cc1F
→ 1.8, 0.33
CCOC(=O)c1ccccc1NC(=O)CSC(C)C(=O)Nc1cc(C)on1 (centres undefined)
→ 1.2, -0.61
Cc1ccc(NC(=O)ON=C2CCCC2)cc1
→ 0.22, 0.62
NC1=NC(=O)S/C1=C\c1ccc(O)cc1
→ 0.02, -0.02
Cc1oc(-c2ccc3c(c2)OCCO3)cc1C(=O)NC(Cc1ccccc1)C(=O)O (centres undefined)
→ 0.13, -0.49
O=c1[nH]c(SCc2cccc(Cl)c2)nc2[nH]ncc12
→ 0.66, -1.9
CCN(CC)C(=O)c1cc(Cl)ccn1
→ 0.07, 0.43
Cc1c(C(=O)Nc2ccc(Cl)cc2)c2ccccn2c1C(=O)c1ccc(F)cc1
→ 0.1, -1.1
O=c1[nH]c2ccccc2n1CCCN1CCCCC1
→ 0.37, -1.1
Cc1onc(-c2ccccc2)c1C(=O)NC(=S)Nc1sc2c(c1C#N)CCC(C)C2 (centres undefined)
→ 10*, -1.2*
Cc1cccc(Oc2ccc3c(c2)cc(C(=O)O)n3C)c1
→ 0.63, -0.2
Cc1ccc(-n2nc3ccc(NC(=S)NC(=O)/C=C/c4ccco4)cc3n2)cc1
→ 0.41, -0.07
CCOc1ccc(NC(=O)CSc2nc(C)c3c(c2C#N)CCCC3)cc1
→ 1.1, 1.9
COC(=O)C(=C/C=C/N1CCOCC1)C(=O)OC
→ 0.4, -2.7
CC(OC(=O)CCCN=C1NS(=O)(=O)c2ccccc21)C(=O)Nc1ccc(F)c(F)c1F (centres undefined)
→ 1.2, -1.3
Cc1ccc(S(=O)(=O)Oc2ccccc2/C=N/NC(N)=S)cc1
→ 0.42, -0.01
Fc1ccc(-c2cc(C(F)(F)F)nc(-n3cncn3)n2)cc1
→ 6.2*, 0.87*
O=C(Nc1ccccn1)c1ccc2nc(-c3ccccc3)c(-c3ccccc3)nc2c1
→ 0.11, 0
CC(Oc1ccc(Cl)cc1Cl)c1nc(-c2ccc(NC(=O)c3ccco3)cc2)no1 (centres undefined)
→ 3, -1.3
O=C(CSc1ncnc2ccccc12)Nc1cccc(S(=O)(=O)N2CCCC2)c1
→ 0.04, 0.44
Cc1[nH]c(=O)[nH]c(=O)c1/C=N/NC(=O)[C@H](CC(C)C)NC(=O)OC(C)(C)C
→ 0.81, -0.35
Cc1onc(-c2c(F)cccc2Cl)c1C(=O)OCC(=O)NC(=O)NCC(C)C
→ 2.3, -0.31
COCCn1c(Cc2cccn2C)nnc1SCC(=O)Nc1nccs1
→ 0.11, -0.03
COC(=O)N/N=C1\CCCc2c(C)cc(C)cc21
→ 0.3, -1.5
CCSc1nc2sc3c(c2c(=O)n1-c1ccccc1)CCN(C(C)C)C3
→ 0.44, 1.2
O=C(OCC(=O)N1CCCCCC1)c1cccs1
→ 1.1, -0.3
O=C(Nc1nc2cc3c(cc2s1)OCCO3)C1=COCCO1
→ 0.76, -0.05
CC(C)Cc1csc(NC(=O)c2ccc(Cl)cc2)c1C(=O)O
→ 5.6*, 0.05*
Cc1nn(-c2ccccn2)c2c1C(=O)CC(C)(C)C2Br (centres undefined)
→ 1.3, 0.18
CCC(CC)C(=O)NCCc1cc2ccc(OC)cc2[nH]c1=O
→ 0.86, 0.89
COc1ccc(N/C=C2/CCCCC2=O)cc1
→ 0.41, 0.07
C#CCOCCOCCOCCNc1nc(N2CCOCC2)nc(N2CCN(C(=O)Cn3cc(CCCN=C(N)N)nn3)CC2)n1
→ 0.19, 0.5
O=C(Nc1ccccc1Cl)c1cc2ccccc2o/c1=N\O
→ -5.6, /
O=[N+]([O-])c1ccc(O)c2cccnc12
→ 1, -0.28
Cc1ccc(Cn2c([N+](=O)[O-])cnc2C)cc1
→ 1.6, 0.31

(listing goes on)
structure | KCNQ2 enhance | KCNQ2 enhance baseline
CN(Cc1ccccc1)C(=O)c1ccc2c(c1)NC(=O)C(N1CCOCC1)S2 (centres undefined) | 0.45 | 1.3
COCc1nc2ccccc2n1Cc1cccc(C)c1 | 0.01 | 0
O=C(NCc1ccc2c(c1)OCO2)c1nc(Cn2cc(Br)cn2)no1 | 0.03 | 0.12
COc1ccc(CNn2cnnc2)c(O)c1 | 1.1 | -0.18
O=C(N/N=C/c1c[nH]c2ccccc12)C1CC1(c1ccccc1)c1ccccc1 (centres undefined) | 1.7 | -1.9
Cc1cccn2c(=O)c(/C=C(\C#N)C(=O)NCc3ccco3)c(N3CCOCC3)nc12 | 0.36 | 0.17
O=C(NCc1ccccc1F)C1CC(=O)N(c2ccc3c(c2)OCCO3)C1 (centres undefined) | 1.5 | -0.18
Cc1cc(NC(=O)CSc2nc3c(cc2C#N)CCCC3)no1 | 0.02 | -0.43
CC(C)Cn1c(=O)oc2ccccc21 | 0.55 | -0.66
CCOC(=O)CCNC(=O)N1CCCC(C(=O)c2ccc3c(c2)OCO3)C1 (centres undefined) | 0.03 | 1.8
CNC(=O)NC(=O)C(C)OC(=O)c1c2c(nc3ccccc13)/C(=C/c1cccs1)CC2 (centres undefined) | 0.13 | 0.97
CC(C)(C)NC(=O)Cn1nnc(-c2ccc(Cl)cc2)n1 | 0.03 | -2.2
O=C(OCc1ccccc1)C1=NNC2C(=O)N(Cc3ccccc3)C(=O)C12 (centres undefined) | 0.86 | -0.61
O=C(NCCN1CCOCC1)c1cc([N+](=O)[O-])ccc1Cl | 0.3 | -1.9
Cc1ccc(C)c(Nc2ccc3nonc3c2[N+](=O)[O-])c1 | 2.1 | -2.6
FC(F)(F)c1cccc(N2CCN(Cc3ccoc3)CC2)c1 | 1.5 | -1.2
COc1ccc(-c2ccc(SCC(=O)N3c4ccccc4CC3C)nn2)cc1OC (centres undefined) | 0.6 | -0.24
COc1ccc(NC(=O)CCCNS(=O)(=O)c2cccs2)cc1 | 0.05 | 0.49
NC(=O)CC(NC(=O)Cc1cccc2ccccc12)c1ccc(NCCN2CCCC2)c([N+](=O)[O-])c1 (centres undefined) | 0.26 | -0.12
CSc1nc(N2CCOCC2)c2c(c1C#N)CCCCC2 | 0.62 | -2.7
Cc1ccc(CNC(=O)C2CCCN2C(=O)Nc2ccc(C)cc2)cc1 (centres undefined) | 0.46 | -0.04
COc1ccc(Cn2c(=N)c(C(=O)NCC3CCCO3)cc3c(=O)n4ccccc4nc32)cc1 (centres undefined) | 0.99 | 0.97
CCOC(=O)c1ccc(NC(=O)Cn2c(C)nc3c(sc(=S)n3CC)c2=O)cc1 | 1.9 | 0.74
COC(=O)/C(=C1/Oc2cc(C)oc(=O)c2S1)C(F)(F)F | 0.09 | 0.04
CC1Cc2cc(S(=O)(=O)CCC(=O)N3CCN(c4ccccc4)CC3)ccc2N1C(=O)C1CC1 (centres undefined) | 0.83 | -1.4

Reprinted from the listing for reference:
structure | KCNQ2 enhance | KCNQ2 enhance baseline
CN(C)C(=O)N1CCC(C(=O)N2CCCC(C(=O)c3cccc4ccccc34)C2)CC1 (centres undefined) | 1.1 | -0.08
COc1ccc(CCN2C(=O)CC(NNC(=O)c3cccc(O)c3)C2=O)cc1 (centres undefined) | 0.73 | -0.02
CCCC1OC23CCCCC2C(C#N)(C(=N)O3)C1(C#N)C#N (centres undefined) | 0.4 | 0.13

Next results follow:
structure | KCNQ2 enhance | KCNQ2 enhance baseline
Cc1ccc(CNC(=O)c2ccccc2NS(=O)(=O)c2ccc(Cl)nc2)cc1 | 2.4 | -0.71
CSCC(=O)NS(=O)(=O)c1ccc(C)cc1 | 0.24 | 0.9
COc1ccc(-c2noc(COc3ccc(Cl)c(C)c3)n2)cc1 | 0.08 | 0.73
CC(C)NC(=O)c1ccc(CNC(=O)OCC(F)(F)F)cc1 | 0.05 | -0.03
O=C(CCNC(=O)c1ccc(Cl)cc1)Nc1ccccc1N1CCCC1 | 0.84 | 0.72
COc1ccc(OCC(=O)N2CCN(C(=O)COc3ccccc3)CC2)cc1 | 1.5 | 0.01
CC(=O)NCCn1c(SCC(=O)NCc2ccco2)nc2ccccc2c1=O | 0.82 | 0.18
O=c1nc2scc(-c3ccccc3)n2c2ccccc12 | 0.82 | 0.34
COc1cccc(CN(C)CC(=O)NC(=O)NCc2ccco2)c1 | 1.4 | -0.09
